Screens from PubChem BioAssay.
Polio RdRp inh = inhibitors of poliovirus RNA polymerase binding and polymerization; poliovirus polymerase elongation, fluorescence polarization; hits give low values; % elongation, % (compound at 16.7 µg/mL); AID 588519; P03300; actives 0.66% (n = 150,000); in the data active = % elongation below about 90%; also: some results filed as inactive read as strong as hits
Target sequence (P03300 1749-2209 limits assumed): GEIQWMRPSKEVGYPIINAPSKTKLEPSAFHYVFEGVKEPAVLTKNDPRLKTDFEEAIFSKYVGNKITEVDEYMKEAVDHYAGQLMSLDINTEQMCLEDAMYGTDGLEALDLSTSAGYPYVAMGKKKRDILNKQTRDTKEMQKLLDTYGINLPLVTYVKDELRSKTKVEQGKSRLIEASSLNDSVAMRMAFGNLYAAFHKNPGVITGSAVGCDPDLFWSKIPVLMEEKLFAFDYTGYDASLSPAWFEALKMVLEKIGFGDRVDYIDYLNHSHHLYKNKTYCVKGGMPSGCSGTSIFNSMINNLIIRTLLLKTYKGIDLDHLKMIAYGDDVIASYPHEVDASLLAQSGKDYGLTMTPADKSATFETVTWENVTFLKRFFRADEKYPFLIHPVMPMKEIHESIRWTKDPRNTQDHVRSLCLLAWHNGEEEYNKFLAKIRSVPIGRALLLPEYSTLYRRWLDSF
Polio RdRp inh intensity = further read-out of Polio RdRp inh, marked with its call; % elongation; measured here: total intensity read-out; formula for this scale not given here;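 total fluorescence in place of polarization; lower means less elongation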
Starred values were filed as active, the others as inactive. This is a subset; count on the stated rates, not on these rows.

SMILES,Polio RdRp inh,Polio RdRp inh intensity
Cc1ccc(Cn2c(=O)n(Cc3ccc(C(=O)NC4CCN(Cc5ccccc5)CC4)cc3)c(=O)c3ccccc32)cc1,103,104
CCCCCc1ccc(-c2ccc(C(=O)Oc3ccc(C(=O)OC)cc3)cc2)nc1,101,105
CC1=C(c2ccc(C)c(C)c2)S(=O)(=O)N=C1N1CCC(C(=O)NCc2ccc(C)o2)CC1,102,107
COc1ccc2[nH]cc(CCNC(=O)Nc3c(C)cccc3C)c2c1,109,112
CCn1c(=O)c2sccc2n2c(CCCC(=O)Nc3ccc(OC)c(OC)c3)nnc12,116,109
COc1ccc(CCNC(=O)CCn2c(=O)c3ccccc3n(Cc3c(C)cc(C)cc3C)c2=O)cc1OC,107,106
COc1cc(NC(=O)Cn2ncc3c([nH]c4ccc(C)cc43)c2=O)cc(OC)c1OC,100,103
Cc1cc(C)c(NC(=O)Cn2nnc(C(=O)Nc3ccc(F)cc3F)c2N)c(C)c1,107,113
CC(NC(=O)c1ccc2nc(Cc3ccccc3)oc2c1)c1ccccc1 (stereo unspecified),107,113
COc1ccccc1NC(=O)c1oc2ccccc2c1NC(=O)c1c(F)cccc1F,101,104
CN(C)c1ccc(C(CNC(=O)COc2ccc(Cl)cc2)N2CCOCC2)cc1 (stereo unspecified),110,110
Cc1ccc2c(CC(=O)Nc3nnc(C(C)C)s3)coc2c1C,114,114
COc1ccccc1NC(=O)Cn1nc2c3cc(F)ccc3n(Cc3cccc(C)c3)cc-2c1=O,117,122
CCOC(=O)c1c(C)c(-c2ccccc2)n(CC(=O)Nc2cc(OC)cc(OC)c2)c1C,100,104
CCOC(=O)C1CCN(C(=O)Cn2c(=O)oc3cc(S(=O)(=O)N4CCC(C)CC4)ccc32)CC1,99,96
COCCCn1c(=O)c2sccc2n2c(CCCC(=O)Nc3cc(C)cc(C)c3)nnc12,121,119
Cc1ccc(NC(=O)Cc2ccc(-n3c(C)nc4cccnc43)cc2)c(Cl)c1,118,119
Cc1cccc(NC(=O)Cn2c(=O)n(Cc3ccccc3)c(=O)c3sc4ccccc4c32)c1,105,102
Cc1ccc(CNC(=O)CCC(=O)N2CC3CCCN3c3ccccc32)cc1 (stereo unspecified),108,116
O=C(CSc1nc(-c2ccccc2)nc2cc(=O)[nH]n12)Nc1ccccc1,98,104
COc1ccc(C)cc1NC(=O)C1CCN(S(=O)(=O)c2c(C)noc2/C=C/c2ccco2)CC1,105,111
CCCC(=O)N1CCc2cc(OC)c(OC)cc2C1COc1ccccc1OC (stereo unspecified),106,109
CCN(C(=O)CCS(=O)(=O)c1ccc2c(c1)oc(=O)n2C)c1ccc(OC)cc1,108,110
Cc1ccc(CNC(=O)CC(C)CC2=NS(=O)(=O)c3ccccc3N2)cc1 (stereo unspecified),96,102
Cc1ccc(-n2ncc(C(=O)N3CCCCC3)c2C2CCN(C(=O)OC(C)(C)C)CC2)cc1C,109,112
Cc1cc2c(c3oc(=O)c4ccccc4c13)CN(Cc1ccc(F)cc1)CO2,100,103
CCOC(=O)c1c(NC(=O)c2ccc(S(=O)(=O)N3CCCC(C)C3)cc2)sc2c1CCN(C(C)C)C2 (stereo unspecified),143,152
O=C(NC1(C(F)(F)F)NC(=O)N(CCc2ccccc2)C1=O)c1ccccc1Cl (stereo unspecified),101,101
COc1cccc(CCNC(=O)c2cnc3sc(N4CCCC4)nn3c2=O)c1,107,109
COc1ccc(OC)c(NC(=O)C(NS(=O)(=O)c2ccc3c(c2)CCCC(=O)N3)C(C)C)c1 (stereo unspecified),104,99
CC(NC(=O)c1c(O)nc2ccccn2c1=O)c1ccccc1 (stereo unspecified),108,114
CCOC(=O)c1ccccc1NC(=O)C1CCN(c2ncnc3c2nc2n3CCCCC2)CC1,105,110
Cc1ccc(Cl)c2sc(NC(=O)CS(=O)(=O)c3ccc(Cl)cc3)nc12,110,114
Cc1nn2c(C)c(C(=O)NCc3ccco3)cnc2c1-c1ccccc1,112,103
CCc1nn(CC(=O)NCc2ccco2)c(=O)c2cc3c(OC)cccc3n12,102,105
COCCCNC(=O)c1ccc2c(c1)NC(=O)C(C(C)C)N2 (stereo unspecified),107,111
Cc1cccc(C)c1OC(=O)CSc1nnc(CNC(=O)c2ccccc2)o1,99,104
COc1ccc(-c2[nH]c(-c3ccc(O)cc3)nc2-c2ccccc2)cc1,102,95
O=C(c1ccc2c(c1)OCCO2)N(Cc1cccnc1)c1nc2ccc(F)cc2s1,103,107
CCCOc1ccc(C2C(=O)N(C3CCCCC3)CC(=O)N2C2CCCCC2)cc1OC (stereo unspecified),107,104
CCOC(=O)c1c(-c2ccc(OC)c(OC)c2)csc1NC(=O)c1ccc(F)cc1,108,112
O=C(NCc1ccccc1Br)c1cnc2sc(N3CCCCCC3)nn2c1=O,112,114
O=c1[nH]c2ccc(NCc3ccc(-c4ccccc4F)o3)cc2[nH]1,109,111
CCOc1ccc2c(c1)NC(c1ccc(OCC)c(OCC)c1)=NC(c1ccc(F)cc1)=N2,104,102
COc1ccc(N2CC(NC(=O)CCc3ccccc3)CC2=O)cc1OC (stereo unspecified),110,107
CCOC(=O)c1cc(-c2ccccc2)n(CCCC(=O)Nc2ccc(C)c(Cl)c2)c1C,102,96
CCC(Sc1nc2ccccc2c2nc(CCn3c(C)nc4ccccc43)nn12)C(=O)Nc1ccc(F)cc1 (stereo unspecified),104,105
COc1ccc(S(=O)(=O)NC2(C(F)(F)F)NC(=O)N(CCc3ccccc3)C2=O)cc1 (stereo unspecified),99,95
CC(Sc1oc(-c2cccs2)nc1S(=O)(=O)c1ccccc1)c1ccccc1 (stereo unspecified),107,113
CCc1ccc(S(=O)(=O)Nc2cc(-c3cn4ccccc4n3)ccc2C)cc1,99,107
CCOC(=O)c1ccccc1NC(=O)CSc1nc2ncccc2[nH]1,111,115
COc1cc(C(=O)N2CCN(c3ccc(Nc4ccccc4)nn3)CC2)cc(OC)c1OC,101,92
CCC1CN(C(=O)NCc2cccc(OC)c2)c2ccccc2O1 (stereo unspecified),104,105
O=C(COc1ccc([N+](=O)[O-])cc1)Nc1cccc2cccnc12,108,108
COC(=O)c1ccccc1NC(=O)Cn1cc(S(=O)(=O)Cc2ccccc2F)c2ccccc21,100,105
COc1ccc(OC)c(C2C(C(N)=O)=C(C)Nc3nc(-c4cccc(Cl)c4)nn32)c1 (stereo unspecified),105,92
Cc1ccccc1Cn1c2ccccc2c2cnn(CC(=O)NCc3ccccn3)c(=O)c21,107,109
Cc1ccc2oc(-c3cccc(NC(=O)Cc4ccc(Cl)cc4)c3)nc2c1,111,113
Cc1ccc(C)c(N2CCN(c3nc4ccccc4c(=O)n3-c3ccc(Cl)cc3)CC2)c1,103,106
Fc1cccc(Cl)c1Cn1c(-c2cccs2)nc2ccccc21,104,107

Continuation:
SMILES,Polio RdRp inh,Polio RdRp inh intensity
O=C(Nc1cccc(O)c1)c1cc2nc(-c3ccc(Br)cc3)cc(C(F)(F)F)n2n1,99,97
O=S1(=O)N(Cc2ccccc2)CCCN1Cc1cccc(Cl)c1,101,98
CCOc1cc(C(=O)Nc2ccc(NC(=O)c3cc4ccccc4o3)c(OC)c2)cc(OCC)c1OCC,104,98
CCc1nc2ccc(C(=O)NCc3ccc(SC)cc3)cc2nc1CC,106,98
O=C(NC1CC(=O)N(c2cccc(F)c2)C1)c1cccs1 (stereo unspecified),107,113
O=C(Cn1cc(S(=O)(=O)c2ccccc2)c(=O)c2cc3c(cc21)OCO3)Nc1ccc(Cl)cc1,107,105
O=C(CCS(=O)(=O)c1nc(-c2ccc3c(c2)OCO3)cc(C(F)(F)F)n1)Nc1ccc(F)c(Cl)c1,105,111
COc1ccc(-n2nc3cc(C)c(NC(=O)COc4cccc(C)c4)cc3n2)cc1,105,107
CCCCCOc1ccc(C(=O)N(Cc2ccccc2)C2CCS(=O)(=O)C2)cc1 (stereo unspecified),100,104
CCOC(=O)c1c(C)[nH]c(CCC(=O)NCCCN2CCN(c3ccccc3F)CC2)c1C,113,118
Cc1cc(N2CCC(C)CC2)nc2ccc(NC(=O)/C=C/c3cccc(Cl)c3)cc12,105,109
CC(=O)c1ccc(N2CCN(C(=O)CS(=O)(=O)c3cccc4nsnc34)CC2)cc1,106,106
CCOC(=O)C1CCCN(c2nc3c(S(=O)(=O)c4ccc(Br)cc4)nnn3c3ccsc23)C1 (stereo unspecified),103,109
CN(C)c1ccc(CNC(=O)CCS(=O)(=O)c2ccc3c(c2)oc(=O)n3C)cc1,110,108
CC(C)C(NS(=O)(=O)c1ccc2c(c1)oc(=O)n2C)C(=O)NCCc1ccc(Cl)cc1 (stereo unspecified),111,108
CC(=O)N1CCc2c(sc3c2c(=O)n(-c2ccccc2Cl)c(=O)n3Cc2cccc(C)c2)C1,113,115
COc1cccc(C(=O)n2nc(-c3ccco3)nc2NCc2cccs2)c1,110,112
COc1ccc(CCNC(=O)c2c(C)oc3ncnc(N4CCOCC4)c23)c(OC)c1,110,110
O=C(CN1C(=O)COc2ccc(Cl)cc21)Nc1cccc(C(=O)O)c1,107,108
Cc1nnc(N2CCC(C(=O)NCCC(C)C)CC2)c2nn(-c3ccc(Cl)cc3)c(C)c12,112,108
CCOC(=O)CNC(=O)c1cc2c(=O)n(CC)c3ccccc3c2s1,106,109
CCc1cccc(-n2c(=O)c3cccnc3n2CC(=O)NCc2ccc(C)cc2)c1,108,112
Cc1cc(Cl)ccc1NC(=O)CN1C(=O)COc2ccc(S(=O)(=O)Nc3ccccc3)cc21,111,110
Cc1ccc(-n2c(=O)c3c(c4cc(C)ccc4n3C)n(CC(=O)NCC3CCCO3)c2=O)cc1 (stereo unspecified),103,100
O=C(COc1ccc2ccccc2c1)NC1CC(=O)N(c2ccc(F)cc2)C1 (stereo unspecified),110,110
COC(=O)CN1C(=O)CSc2ccc(S(=O)(=O)Nc3ccc(F)c(Cl)c3)cc21,109,114
CCCSCCCNC(=O)Cn1c(-c2cccs2)cc2ccccc21,111,114
CC1CCCCN1C(=O)c1cc(-c2ccc(Br)cc2)on1 (stereo unspecified),105,106
Cc1ccc(-c2nc(CNC(=O)NC3CCCCC3)c(C)o2)cc1,105,107
COc1ccc(NC(=O)c2ccc(CN3C(=O)CCn4nc(C)cc43)cc2)c(OC)c1,113,117

Part of the list above, with two lines to a compound:
Screens in order: Polio RdRp inh, Polio RdRp inh intensity
> CCOC(=O)C1CCCN(c2nc3c(S(=O)(=O)c4ccc(Br)cc4)nnn3c3ccsc23)C1 (stereo unspecified)
→ 103, 109
> CN(C)c1ccc(CNC(=O)CCS(=O)(=O)c2ccc3c(c2)oc(=O)n3C)cc1
→ 110, 108
> CC(C)C(NS(=O)(=O)c1ccc2c(c1)oc(=O)n2C)C(=O)NCCc1ccc(Cl)cc1 (stereo unspecified)
→ 111, 108
> CC(=O)N1CCc2c(sc3c2c(=O)n(-c2ccccc2Cl)c(=O)n3Cc2cccc(C)c2)C1
→ 113, 115
> COc1cccc(C(=O)n2nc(-c3ccco3)nc2NCc2cccs2)c1
→ 110, 112
> COc1ccc(CCNC(=O)c2c(C)oc3ncnc(N4CCOCC4)c23)c(OC)c1
→ 110, 110
> O=C(CN1C(=O)COc2ccc(Cl)cc21)Nc1cccc(C(=O)O)c1
→ 107, 108

Additional structures
SMILES,Polio RdRp inh,Polio RdRp inh intensity
CCOc1ccc(-c2nc(SCC(=O)NC3CCCC3)c(-c3ccccc3)[nH]2)cc1OC,115,116
Cc1csc2nc(COc3ccc(NC(=O)COc4ccc(F)cc4)cc3)cc(=O)n12,104,115
CCN(Cc1ccccc1)C(=O)c1cc(-c2ccccc2)n[nH]1,109,114
Cc1ccccc1NC(=O)C(Cc1ccccc1)N1Cc2ccccc2C1=O (stereo unspecified),107,111
CCc1ccccc1NC(=O)CC(C)S(=O)(=O)c1ccc2c(c1)NC(=O)CO2 (stereo unspecified),101,95
Cc1ccccc1CS(=O)(=O)CC1Nc2ccc(C(=O)NCc3ccc(Cl)cc3)cc2NC1=O (stereo unspecified),127,129
CC(C)NC(=O)CN1C(=O)COc2ccc(S(=O)(=O)N3CCCCCC3)cc21,103,105
COc1ccc(Nc2nnc(-c3ccc(C)c(S(=O)(=O)N4CCN(C)CC4)c3)c3ccccc23)cc1,106,111
CCc1ccccc1NC(=O)Cn1cc(C(=O)c2ccncc2)c(=O)c2cc(C)ccc21,107,105
Cc1cc(C)c(NC(=O)Cn2nnc(-c3ccccc3)n2)c(C)c1,105,109
COc1ccc(C(=O)Nc2ccc(OCc3cc(=O)n4ccsc4n3)cc2)cc1OC,114,114
Cc1ccc(-n2ncc(C(=O)NCCc3ccsc3)c2C2CCN(C(=O)OC(C)(C)C)CC2)c(C)c1,107,104
Cn1cc(CCCC(=O)NCc2ccc(F)cc2)c2ccccc21,112,116
Cc1cccc(NC(=O)CSc2nnc3c4ccccc4n(C)c3n2)c1,107,111
Cc1ccc(CNC(=O)c2ccc3nc(SCc4ccc(F)cc4)[nH]c3c2)cc1,104,104
COC(=O)c1c(NC(=O)c2ccc(Cl)c(Cl)c2)sc2c1CCCC2,109,113
Cc1ccc(CSc2nc(-c3ccc(C(C)(C)C)cc3)nc3cc(=O)[nH]n23)cc1,114,98
Cc1ccc(NC(=O)c2cc(S(=O)(=O)N3CCCc4ccccc43)ccc2F)cc1F,108,107

One compound at a time, from the list above. Screens in order: Polio RdRp inh	Polio RdRp inh intensity
Profile of `Cc1csc2nc(COc3ccc(NC(=O)COc4ccc(F)cc4)cc3)cc(=O)n12` → 104	115
Profile of `Cc1cc(C)c(NC(=O)Cn2nnc(-c3ccccc3)n2)c(C)c1` → 105	109
